Assay outcomes from PubChem.
UCH37 DUB inh: inhibitors of human UCH37 deubiquitinase, primary screen, biochemical, Ub-AMC cleavage, fluorescence. purified proteasome/UCH37. inhibition, % (concentration not given with the values). 330,000 compounds, 0.33% hits. AID 588478, 2011;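 active = mean of two replicates above 20%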;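 note: 0% = compound-free wells with enzyme and 100% = wells lacking proteasome; stock transfer was 100 nL into about 20 µL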
Target sequence (Q9Y5K5 whole entry, looked up): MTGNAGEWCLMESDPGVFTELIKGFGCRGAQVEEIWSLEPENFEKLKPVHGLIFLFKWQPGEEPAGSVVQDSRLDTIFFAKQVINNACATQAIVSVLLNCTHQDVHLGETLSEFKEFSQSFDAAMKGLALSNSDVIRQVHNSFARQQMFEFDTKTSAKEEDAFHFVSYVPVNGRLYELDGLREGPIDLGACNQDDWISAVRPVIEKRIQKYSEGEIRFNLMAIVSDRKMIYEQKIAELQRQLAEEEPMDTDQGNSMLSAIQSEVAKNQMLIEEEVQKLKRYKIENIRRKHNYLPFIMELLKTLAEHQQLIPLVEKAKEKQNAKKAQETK
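Material: human UCH37 enzyme supplied as purified proteasome complex / Amount: 0.15 nM proteasome as dispensed / Buffer or medium: pH 7.4 Tris-HCl (50 mM) with ovalbumin, ATP-MgCl2, DTT / Times: preincubation 30 min, reaction 25 min, room temperature / Technique: AMC fluorescence from Ub-AMC cleavage, excitation 355 nm, emission 460 nm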
T cruzi inh: inhibitors of intracellular T. cruzi growth, primary screen, luminescence, NIH3T3 host cells; 300,000 compounds, 1.4% hits; T. cruzi beta-gal in NIH3T3, 90 h; inhibition, % (concentration not given with the values);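 active = mean inhibition across valid replicates above about 55%, limit read from the data; inconclusive = mean below that limit but half or more replicates reach it; inactive = mean below it, under half of replicates reach it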;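 note: signal also drops with host cell toxicity which is not excluded here; 0% = plate median of DMSO wells and 100% = zero luminescence signal; higher percent means less beta-gal luminescence so fewer parasites; stock transfer was 50 nL into about 50 µL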
Ecoli growth: E. coli growth inhibition, primary screen, OD600 | Escherichia coli growth, 23 h; stronger effect = lower value | OD600 absorbance (concentration not given with the values) | 330,000 compounds, 0.21% hits;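 active = OD600 absorbance below the run mean of sample wells minus 3.6 SD, in any replicate, cut at about 0.56 in these data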;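 note: stock transfer was 300 nL into about 60 µL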
rRNA inh HTS: reduced GFP signal of wild-type E. coli, primary screen, bacterial rRNA inhibitor project, GFP/RFP fluorescence, OD600, single point; E. coli WT GFP vs humanized-ribosome RFP mutants, 24 h; stronger effect = lower value; DMSO median 0, no signal -100; 350,000 compounds, 1.6% hits; GFP signal change (wild-type ribosome), % (test concentration not listed);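 active = significant combined selectivity score with lowered wild-type GFP, culture density cut under 30%, mutant RFP and density less affected; inactive = any of these conditions unmet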; note: one replicate is shown; some compounds called inactive have numbers as strong as hits
FGF22 binding: binders of human FGF22 protein, primary screen, FGF22 synaptogenesis inhibitor project, biophysical, thermal shift, single point; Fibroblast growth factor 22 (Homo sapiens), Q9HCT0; recombinant FGF22 thermal shift, SYPRO orange fluorescence; percent of sucrose octasulfate shift, DMSO zero; calls only at 9.99 µM; 340,000 compounds, 1.5% hits;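 active = melting point raised past a set limit in the mean and every replicate; inconclusive = no clear call; three in four hits are not shown here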
Target sequence (Q9HCT0 whole entry, looked up): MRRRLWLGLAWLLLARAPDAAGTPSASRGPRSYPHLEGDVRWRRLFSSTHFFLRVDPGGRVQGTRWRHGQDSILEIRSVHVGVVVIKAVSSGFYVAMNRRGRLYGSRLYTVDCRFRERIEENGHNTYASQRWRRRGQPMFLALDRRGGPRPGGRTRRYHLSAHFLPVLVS
Beta apoptosis: inhibitors of cytokine-induced beta cell apoptosis, primary screen, luminescence. protection from apoptosis, % (concentration not given with the values). INS-1E cytokine-induced death, ATP luminescence, 48 h; percent of positive-control rescue, neutral wells zero. AID 435005, 2010. 300,000 compounds, 0.8% hits;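 active = all replicates at 75% or more, or half of them and the mean; inconclusive = half reach 75% but not the mean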;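 note: 0% = cytokine-treated negative control wells and 100% = positive control rescue; higher means more ATP so stronger rescue from cytokine killing; wells of about 40 µL received 100 nL stock; the first replicate is given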
Bfl-1 A1 inh: caspase 3/7 activation in MEF A1-2A-BIM cells, primary screen, A1 inhibitor project, cell-based, luminescence, HTS. caspase activation, % (test concentration not listed). 330,000 compounds, 0.066% hits. AID 2462, 2010. Caspase-Glo 3/7 luminescence, 3 h; percent of clofoctol response, vehicle zero;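 active = over half of replicate activation scores above 10%, or exactly half above 10 with the replicate mean above 10; inconclusive = replicate mean below 10 yet half the replicates above 10; inactive = over half of replicates below 10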;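 note: wells of about 30 µL received 50 nL stock; many hits fall short of the cut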
MLL AF4-AF9 inh: inhibitors of AF4 peptide binding to AF9, primary screen, biochemical, AlphaScreen, biotin-AF4 peptide, FLAG-AF9, single point | Protein AF-9 (Homo sapiens), P42568 | 350,000 compounds, 0.47% hits | inhibition, % at 10 µM | AID 651704, 2012;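 active = every replicate reaching a set inhibition limit, whatever the replicate mean, cut at about 25% in these data; inconclusive = mean inhibition reaches that limit but some replicates miss it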;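 note: 0% = plate neutral control median and 100% = total signal loss; the record names both 10 and 1 µM as test concentration; the first replicate is given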
Target sequence (P42568 whole entry, looked up): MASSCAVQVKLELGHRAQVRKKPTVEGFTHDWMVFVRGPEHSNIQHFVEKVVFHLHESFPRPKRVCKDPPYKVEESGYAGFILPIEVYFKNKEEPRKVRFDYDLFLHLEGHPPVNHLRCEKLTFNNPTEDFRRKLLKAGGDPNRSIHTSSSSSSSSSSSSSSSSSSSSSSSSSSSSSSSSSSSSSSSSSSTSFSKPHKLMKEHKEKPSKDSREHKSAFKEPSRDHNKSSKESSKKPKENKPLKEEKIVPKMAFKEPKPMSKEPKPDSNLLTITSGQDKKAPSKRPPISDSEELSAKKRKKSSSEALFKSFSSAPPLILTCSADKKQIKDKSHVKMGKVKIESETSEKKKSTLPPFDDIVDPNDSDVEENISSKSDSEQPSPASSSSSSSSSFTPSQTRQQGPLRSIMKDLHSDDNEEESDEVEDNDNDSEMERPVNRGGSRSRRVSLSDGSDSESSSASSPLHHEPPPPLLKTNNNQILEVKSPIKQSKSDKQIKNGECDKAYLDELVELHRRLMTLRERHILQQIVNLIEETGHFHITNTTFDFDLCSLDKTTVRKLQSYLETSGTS
rRNA inh HTS OD600: further read-out of rRNA inh HTS, marked with its call; OD600 change, %; measured here: OD600 growth;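 optical density of the mix in the first replicate; 0 = DMSO median and -100 = no signal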
rRNA inh HTS RFP: recorded beside rRNA inh HTS, whose call it bears; RFP signal change, %; measured here: RFP humanized mutant strains;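 first replicate; 0 = DMSO median and -100 = no signal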
Numbers without * were called inactive; i = inactive; ? = inconclusive; nt = not tested or not shown. The list is partial; count on the stated rates, not on these rows.

SMILES	UCH37 DUB inh	T cruzi inh	Ecoli growth	rRNA inh HTS	rRNA inh HTS OD600	rRNA inh HTS RFP	FGF22 binding	Beta apoptosis	Bfl-1 A1 inh	MLL AF4-AF9 inh
O=S(=O)(Nc1ccc2c(c1)OCO2)c1ccc(F)c(F)c1	0.9	nt	0.68	3	-8	6.3	i	-1	0.7	1.6
Cc1cc(C(=O)COC(=O)c2ccc3c(c2)NC(=O)CS3)c(C)n1CC1CCCO1 (centres undefined)	4.8	17	0.67	nt	nt	nt	nt	nt	0.1	nt
COc1ccc(CCNC(=O)CSc2nc3[nH]ncc3c(=O)n2-c2ccc(Cl)cc2Cl)cc1OC	1.4	15	0.66	-7	-10	0.3	i	-1	0.4	5.3
COc1ccc(NS(=O)(=O)c2ccc(Br)cc2)cn1	5.7	-3	0.66	7	10	4.0	i	-5	-0.4	-1.5
CCCOc1ccc(C(=O)NNC(=S)NC(=O)c2ccco2)cc1	4.8	?	0.55	-48*	-36*	-11*	i	20	0.6	-3.0
CCN(CC)c1ccc(S(=O)(=O)N2CCOCC2)cc1NC(=O)CN1C(=O)NC2(CCC(C)CC2)C1=O (centres undefined)	0.5	19	0.67	-4	-8	0.3	i	1	-0.4	0.7
COC(=O)c1ccc(NN=Nc2ccc(C)cc2)cc1	2.8	-2	0.69	nt	nt	nt	nt	0	0.2	nt
Cc1nonc1NC(=O)CSc1cn[nH]n1	1.3	3	0.71	8	6	-1.4	i	1	-1.0	-1.5
Cc1nc2c(-c3ccccc3)c(C)nn2c(C)c1CCC(=O)NCc1ccco1	2.0	nt	0.74	-4	-23	-3.0	i	3	0.6	3.3
CCn1c(CNC(=O)c2ccc(OC)cc2)nnc1SCC(=O)c1ccccc1	4.3	2	0.76	nt	nt	nt	nt	1	0.1	nt
CCOC(=O)c1cc2sccc2n1CC(=O)N1CCCc2ccccc21	1.5	39	0.67	-17	-23	-8.0	i	6	1.9	-2.8
Cn1c(=O)n(C)c2cc(N3CCOCC3)c(NC(=O)c3cccc(Cl)c3)cc21	-1.1	-4	0.7	7	14	-2.4	i	1	1.9	-18
CC1=C/C(=N\NC(=O)c2cccs2)CC(C)(C)C1	nt	-30	nt	10	5	5.2	i	8	-0.1	-1.1
CCn1c2ccccc2c2nnc(SCC(=O)NCc3cccs3)nc21	7.5	6	0.65	nt	nt	nt	nt	0	0.1	nt
C(=N\Nc1nncc2ccccc12)/c1ccccc1	nt	-17	nt	-2	18	0.6	i	7	-6.4	1.4
CS(=O)(=O)N(CC(=O)N1CCN(Cc2ccccc2)CC1)c1cccc([N+](=O)[O-])c1	5.2	-3	0.69	6	23	11	i	1	-0.6	-3.8
O=C(COC(=O)c1ccccc1NC(=O)c1ccco1)Nc1ncc(Cl)cc1Cl	-7.9	-14	0.75	nt	nt	nt	nt	-2	0.5	nt
O=C(Nc1cccc(Cl)c1Cl)c1ccc(-c2ccccc2)cc1	0.7	9	0.75	nt	nt	nt	nt	0	-3.0	nt
Cc1ccccc1OCC(=O)Nc1cccc(S(=O)(=O)NC2=NCCC2)c1	2.9	nt	0.67	-6	-22	-1.8	i	-2	-0.5	0.2
O=C(c1cc2ccccc2cc1O)N1CCN(c2cccc(Cl)c2)CC1	1.8	1	0.69	-8	-16	3.3	i	nt	0.2	-0.3
COc1ccc(Nc2nc3cc(C)ccc3cc2C#N)cc1	-4.3	-1	0.72	1	4	-0.9	i	15	0.7	-3.2
O=S(=O)(NCCc1ccccc1)c1ccc(Cl)nc1	1.3	1	0.7	nt	nt	nt	nt	3	0.2	nt
COc1cccc(N2C(=O)CC(N3CCN(CCN=CC4=C(O)CC(C)(C)CC4=O)CC3)C2=O)c1 (centres undefined)	1.6	-1	0.72	13	11	-1.1	nt	-4	0.4	-1.6
O=C(CN1CCCC1)Nc1sc2c(c1C(=O)Nc1ccccc1)CCCC2	0.9	35	0.73	7	7	-2.1	i	-7	0.8	-0.8
NC(=O)NO	-3.8	nt	0.7	nt	nt	nt	i	nt	-0.3	2.9
CN(c1ccc(C(=O)N2CCOCC2)cc1)S(C)(=O)=O	-3.5	-12	0.64	15	12	-0.6	i	-11	-0.5	7.2
Cc1ccc(C)c(NC(=O)c2cc(-c3cc(C)c(C)cc3O)n[nH]2)c1	2.9	-5	0.69	5	-1	4.7	i	9	0.2	3.0
O=C(NCC1CCCO1)C1CCN(C2CCN(Cc3cccs3)CC2)CC1 (centres undefined)	2.7	8	0.72	5	3	2.9	i	-5	0.8	-11
COc1ccc(C2=NN(C(=O)CCC(=O)O)C(c3ccc(F)cc3)C2)cc1 (centres undefined)	nt	-8	nt	2	-5	1.0	i	-1	0.1	3.2
COc1ccc(-c2csc3ncnc(Oc4ccc5c(C)cc(=O)oc5c4)c23)cc1	-0.5	31	0.72	17	7	-2.2	i	5	0.0	-4.9
COc1ccc([C@H]2/C=C\CN(S(C)(=O)=O)[C@@H](C)C(=O)N2Cc2ccc(F)cc2)cc1	-1.6	-1	nt	4	-1	0.8	i	-4	-1.7	4.7
CC(=O)Nc1c(C(=O)Nc2ccc3c(c2)OCO3)oc2ccccc12	nt	-7	nt	20	34	-0.9	i	-1	-0.6	-1.5
CC1(C(=O)N2CCN(C(=O)c3ccco3)CC2)CC1(Br)Br (centres undefined)	3.7	-8	0.69	14	5	1.7	i	1	2.0	2.9
Cc1cc(C)cc(OCC(=O)NNC(=O)c2ccccn2)c1	1.2	nt	0.69	-52	-77	-16	i	0	-0.2	-1.2
COc1ccccc1C(=O)Nc1ccc2c(c1)OCCO2	3.9	0	0.67	nt	nt	nt	nt	-2	-0.1	nt
O=C(C1CCCC1)N1CCN(S(=O)(=O)c2ccc(F)c(F)c2F)CC1	0.3	-12	0.61	nt	nt	nt	nt	2	0.0	-1.3
CCOC(=O)C(C(=O)OCC)C(C#N)c1ccccc1 (centres undefined)	3.8	-7	0.74	nt	nt	nt	nt	0	-0.4	nt
Cc1oc(-c2ccccc2Cl)nc1CSCC(=O)N1CCCC1	3.2	-2	0.68	nt	nt	nt	nt	-4	-0.1	nt
COc1ccc(CN(C(=O)CSc2nnc(-c3ccc(OC)c(OC)c3)o2)c2ccc(F)cc2)cc1	1.1	19	0.71	nt	nt	nt	nt	7	0.0	nt
O=C1N=C(N2CCc3ccccc3C2)S/C1=C\c1cccc(O)c1	5.3	-8	0.67	nt	nt	nt	nt	-1	-0.3	nt
O=C(NC1CCCCCCC1)C1c2ccccc2C(=O)N1Cc1ccco1 (centres undefined)	0.4	-17	0.73	nt	nt	nt	nt	-2	-0.8	nt
Cc1ccc(C(=O)NCCCN2CCOCC2)cc1S(=O)(=O)N1CCCCC1	5.3	nt	0.69	6	8	0.6	i	nt	nt	2.0
CC1CCN(C(=O)CCC(=O)N2CC(C)Oc3ccccc32)CC1 (centres undefined)	0.0	-3	0.73	5	3	0.7	i	-4	-0.3	-17
O=C(Nc1nnc(Cc2ccccc2)s1)c1cccs1	-4.3	-15	0.75	nt	nt	nt	nt	3	-1.6	nt
COc1ccccc1NC(=O)CCC(=O)OCc1ccc(Br)cc1	0.7	-8	0.7	-5	-1	-0.6	i	-4	-1.0	-20
COc1ccc(C2=NN(C(=O)CCC(=O)O)C(c3ccccc3F)C2)cc1 (centres undefined)	1.4	5	0.64	-4	-6	-5.9	i	-4	0.2	-2.0
CN1CCc2c(c3ccccc3n2C)C1	0.8	-16	0.71	nt	nt	nt	nt	-1	0.0	nt
O=S(=O)(Nc1ccc(-c2nc3cccnc3s2)cc1)c1cc(F)ccc1F	nt	24	nt	-20*	-10*	-1.0*	i	-1	-2.0	-6.7
Cc1ccc(C)c(S(=O)(=O)N2CCN(C(=O)c3ccc(OCc4c(C)noc4C)cc3)CC2)c1	2.6	24	0.71	-12	-18	5.9	i	6	-1.0	-0.8
Cc1coc2c1c(C)cc1oc(=O)c(CC(=O)N[C@H](C(=O)O)C(C)C)c(C)c12	-396	-7	0.67	-15	-15	5.1	i	-6	0.1	0.9
CCN(CC)CCNC(=O)c1cn(CC)c2cc(N3CCN(C(=O)c4ccco4)CC3)c(F)cc2c1=O	-136	11	0.074*	-52	-82	-14	i	-1	-0.1	2.3
O=C(/C=C/c1cccc([N+](=O)[O-])c1)NCCSCc1c(Cl)cccc1Cl	0.0	-4	0.65	-17	-20	-2.3	i	5	0.2	-3.5
Cc1cccc2cc(CN(Cc3ccc(F)cc3)Cc3nnnn3C3CCCC3)c(=O)[nH]c12	0.7	56*	0.66	9	10	0.0	i	2	-0.7	8.1
O=C(COc1ccc(Cl)cc1)NCCNC(=O)c1cnccn1	-0.3	-10	0.69	3	2	-0.3	i	-1	0.3	-4.1
Nc1cc(C(=O)OCC(=O)NCCC2=CCCCC2)ccc1Cl	-8.6	nt	0.71	0	-5	2.0	i	-5	-1.1	1.7
Cc1nc(N2CCC(C)CC2)c2c(C)c(C(=O)Nc3cccc(C(F)(F)F)c3)sc2n1	-50	38	0.75	nt	nt	nt	nt	3	0.9	nt
Cc1ccc(NC(=O)COC(=O)CN2C(=O)NC3(CCCC3)C2=O)cc1Cl	4.5	nt	0.68	nt	nt	nt	i	-1	-0.1	-0.2
O=C1c2cccnc2C(Nc2cccc(F)c2)N1Cc1ccco1 (centres undefined)	-0.1	-1	0.7	4	5	5.9	i	-4	-0.2	-1.4
CCOC(=O)C1=C(C)Nc2ncnn2C1c1cccs1 (centres undefined)	4.2	8	0.71	nt	nt	nt	nt	-5	-0.3	nt
Cc1ccc(NC(=O)COC(=O)C2CC2)c(Br)c1	3.2	-13	0.69	nt	nt	nt	nt	0	0.8	nt
Cc1ccc(-c2cc(C(=O)N3CCN(C(=O)c4ccco4)CC3)no2)cc1	2.8	-7	0.7	-6	-12	0.8	nt	-2	-0.6	nt

A different layout for two compounds above:
Cc1ccc(-c2cc(C(=O)N3CCN(C(=O)c4ccco4)CC3)no2)cc1
  UCH37 DUB inh = 2.8; T cruzi inh = -7; Ecoli growth = 0.7; rRNA inh HTS = -6; rRNA inh HTS OD600 = -12; rRNA inh HTS RFP = 0.8; FGF22 binding = nt; Beta apoptosis = -2; Bfl-1 A1 inh = -0.6; MLL AF4-AF9 inh = nt
CCN(CC)CCNC(=O)c1cn(CC)c2cc(N3CCN(C(=O)c4ccco4)CC3)c(F)cc2c1=O
  UCH37 DUB inh = -136; T cruzi inh = 11; Ecoli growth = 0.074*; rRNA inh HTS = -52; rRNA inh HTS OD600 = -82; rRNA inh HTS RFP = -14; FGF22 binding = i; Beta apoptosis = -1; Bfl-1 A1 inh = -0.1; MLL AF4-AF9 inh = 2.3
